Screening results: PubChem BioAssay, several laboratories
Yeast UUG start: modulators of yeast start codon fidelity, primary screen, whole organism, S. cerevisiae, single point, plate reader | S. cerevisiae UUG-firefly luciferase reporter, luminescence/redox ratio | activity score, % at 18.7 µM | 350,000 tested, 0.13% active | AID 602363, 2012;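 active = replicate mean at a twofold rise or more, about +100% in these data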;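 also: firefly luciferase made from a UUG start codon reports start codon fidelity; reporter light over untreated wells divided by growth signal over untreated wells; some hits fall short of that in this replicate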
HIV Env fusion: inhibitors of HIV-1 Env-driven cell-cell fusion, primary screen, HeLa-JRFL effector, CEM21 target cells, luciferase; inhibition, % at 12.3 µM; 360,000 tested, 1.1% active; AID 651610, 2012;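 active = mean replicate inhibition score of at least 50 and every replicate individually at or above 50; inconclusive = only one of the two criteria met; inactive = mean below 50 and not all replicates reaching 50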;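 also: 0% = plate neutral controls and 100% = maraviroc near 300 nM; one replicate is shown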
Rce1 inhib: yeast Rce1p protease inhibitors, primary screen, biochemical, fluorescence, cell-free homogeneous | CAAX prenyl protease 2 (Saccharomyces cerevisiae (strain ATCC 204508 / S288c)), Q03530 | yeast membranes, quenched prenylated peptide cleavage fluorescence | calls only | 290,000 tested, 0.27% active | AID 2563, 2010;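 active = fall in fluorescence gain of 50% or more versus controls, with final raw signal at or below 3038400; inconclusive = same 50% fall but final raw signal above 3038400; inactive = fall in fluorescence gain under 50%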;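 also: plate controls were neutral control wells for no effect and wells lacking membranes for full effect; tested at 10 µM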
MT1-MMP act inh: blockers of MT1-MMP proenzyme processing, primary screen, HT1080 RFP-PRO-GFP cells, GFP/RFP fluorescence. Matrix metalloproteinase-14 (Homo sapiens), P50281. GFP/RFP ratio fluorescence, overnight; percent of plate control window, DMSO zero. GFP/RFP ratio change, % at 20 µM. 360,000 tested, 0.061% active;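 active = GFP/RFP ratio change of at least 30% with cell ATP level not reduced by more than half and red fluorescence within 50% of control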; also: strong numbers were not always called active
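Assay system: HT1080 RFP-PRO-GFP cells. Benchmarks: DMSO vehicle wells and RFP-L50D-GFP reporter cell wells. Times: overnight cell settling, then overnight compound exposure, 37 °C, 5% CO2. Compound: 20 µM single dose, 1% DMSO. Read-out basis: GFP/RFP fluorescence ratio.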
CSC inhib: cancer stem cell viability inhibitors, primary screen, luminescence; cancer stem cell-like cells viability; 300,000 tested, 1.1% active; inhibition, % at 7.5 µM; AID 2717, 2010;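 active = mean at 75% or more and at least half the replicates too; inconclusive = mean and replicates disagree; tested in HMLE shEcad cells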;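 also: 0% = median of negative and 100% = median of positive control wells; the first replicate is given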
PABP FP inh: PABP poly(A) RNA binding inhibitors, primary screen, biochemical, fluorescence polarization, uHTS | inhibition, % at 35 µM | 290,000 tested, 1% active | AID 2014, 2009;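 active = 50% or more with normal probe brightness, or confirmed in later tests; inconclusive = above 50% with abnormal brightness, or retests that disagree; inactive = below 50% or failed in later tests; about a fifth of its hits are not listed in these tables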;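 also: calls also rest on retests at 20 µM and on dose response follow-up; controls were probe without protein and protein plus probe with vehicle; some compounds called inactive have numbers as strong as hits; many hits fall short of the cut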
Target sequence (P11940 whole entry, looked up): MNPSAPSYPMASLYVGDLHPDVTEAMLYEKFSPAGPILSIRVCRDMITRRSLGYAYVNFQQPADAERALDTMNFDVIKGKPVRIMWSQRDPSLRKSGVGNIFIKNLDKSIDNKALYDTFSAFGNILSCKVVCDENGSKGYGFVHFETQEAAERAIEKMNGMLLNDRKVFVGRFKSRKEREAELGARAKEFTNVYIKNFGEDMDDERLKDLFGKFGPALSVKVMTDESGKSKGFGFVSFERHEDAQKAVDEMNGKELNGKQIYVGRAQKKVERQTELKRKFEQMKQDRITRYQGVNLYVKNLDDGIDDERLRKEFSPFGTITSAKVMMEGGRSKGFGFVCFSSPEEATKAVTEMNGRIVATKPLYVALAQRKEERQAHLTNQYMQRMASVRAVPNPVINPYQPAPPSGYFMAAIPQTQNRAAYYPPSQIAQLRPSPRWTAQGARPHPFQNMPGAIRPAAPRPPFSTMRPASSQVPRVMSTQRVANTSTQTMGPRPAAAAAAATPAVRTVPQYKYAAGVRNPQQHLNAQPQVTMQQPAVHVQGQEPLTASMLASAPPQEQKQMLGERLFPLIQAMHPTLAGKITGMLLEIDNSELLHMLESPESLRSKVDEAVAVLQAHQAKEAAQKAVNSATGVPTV
eIF4H FP inh: human eIF4H binding inhibitors, primary screen, translation initiation inhibitor project, biochemical, uHTS, fluorescence polarization; Eukaryotic translation initiation factor 4H (Homo sapiens), Q15056; eIF4H fluorescence polarization binding assay; inhibition, % at 35 µM; 290,000 tested, 0.94% active; AID 2012, 2009;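 active = 50% or more with normal probe brightness, or confirmed in later tests; inconclusive = above 50% with abnormal brightness, or retests that disagree; inactive = below 50% or failed in later tests; about a fifth of its hits are not listed in these tables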;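 also: calls also rest on retests at 20 µM and on dose response follow-up; 0% = protein and probe with vehicle and 100% = probe without protein; strong numbers were not always called active; many hits fall short of the cut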
MT1-MMP act inh RFP: also measured in MT1-MMP act inh; calls as there; RFP signal change, %; measured here: RFP expression control read;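 0 = vehicle wells; hits needed this value within 50% of zero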
The depositor's hits bear a star; i = inactive; ? = inconclusive; nt = no result given; & = joins results of further samples. This is a random part of the collection; any-hit rate near 2.9%.

canonical_smiles	Yeast UUG start	HIV Env fusion	Rce1 inhib	MT1-MMP act inh	MT1-MMP act inh RFP	CSC inhib	PABP FP inh	eIF4H FP inh
Cc1ccc(S(=O)(=O)n2ccnc2)cc1C	-14	-6	i	2	4	-6	-8	-3
Cc1ccccc1NC(=O)Cn1c(=O)n(-c2ccc(CC(=O)NCC3CCCO3)cc2)c(=O)c2ccccc21 (stereo not given)	nt	-13	i	-2	1	-7	6	-2
S=C(NCCOCCOCCNC(=S)Nc1ccccc1)Nc1ccccc1	1	21	i	-1	-4	-17	-10	5
Cc1cc(C)n(-c2nc3ccccc3n3cnnc23)n1	-23	-10	i	11	5	4	-8	-9
OCCC1CN(CC2CCCCC2)CCN1CC1CCCCC1 (stereo not given)	-3	-10	i	-1	3	44	-12	6
Cc1ccc(NC(=O)C2COc3ccccc3O2)c(C)c1 (stereo not given)	-13	-25	i	-2	-2	-5	13	8
Cc1nc(N/N=C/c2cccc(F)c2)cc(N2CCOCC2)n1	-20	5	nt	-3	-3	0	16	-2
CCc1ccccc1NC(=O)CCc1c(C)nn(-c2ccc(N3CCOCC3)nn2)c1C	-13	-3	i	-4	3	-6	8	8

Rewritten with two lines to a compound: five of the compounds above
Results follow in this order: Yeast UUG start, HIV Env fusion, Rce1 inhib, MT1-MMP act inh, MT1-MMP act inh RFP, CSC inhib, PABP FP inh, eIF4H FP inh
- S=C(NCCOCCOCCNC(=S)Nc1ccccc1)Nc1ccccc1
 : 1, 21, i, -1, -4, -17, -10, 5
- CCc1ccccc1NC(=O)CCc1c(C)nn(-c2ccc(N3CCOCC3)nn2)c1C
 : -13, -3, i, -4, 3, -6, 8, 8
- Cc1ccccc1NC(=O)Cn1c(=O)n(-c2ccc(CC(=O)NCC3CCCO3)cc2)c(=O)c2ccccc21 (stereo not given)
 : nt, -13, i, -2, 1, -7, 6, -2
- Cc1nc(N/N=C/c2cccc(F)c2)cc(N2CCOCC2)n1
 : -20, 5, nt, -3, -3, 0, 16, -2
- OCCC1CN(CC2CCCCC2)CCN1CC1CCCCC1 (stereo not given)
 : -3, -10, i, -1, 3, 44, -12, 6

Additional results follow.
canonical_smiles	Yeast UUG start	HIV Env fusion	Rce1 inhib	MT1-MMP act inh	MT1-MMP act inh RFP	CSC inhib	PABP FP inh	eIF4H FP inh
COc1ccc(-n2nc(C(=O)NCC(=O)N3CCOCC3)c3ccccc3c2=O)c(OC)c1	-13	-1	i	-3	-2	-13	3	1
Cn1c(=O)oc2cc(S(=O)(=O)Nc3cccc([N+](=O)[O-])c3)ccc21	-13	-7	i	0	-2	-1	10	1
COc1ccc(CCNC(=O)COc2ccc(N(C)S(=O)(=O)c3ccc(Cl)cc3)cc2)cc1	nt	25	i	-4	-12	nt	-6	-3
COCCN(Cc1cccs1)S(=O)(=O)c1csc(C(N)=O)c1	-6	-5	i	3	6	-14	3	4
O=S(=O)(c1ccc(S(=O)(=O)N2CCCC2)cc1)N1CCCCCC1	-5	nt	i	1	-1	11	-4	-3
CCOC(=O)C1CCN(C(=O)C2CCN(c3nn4c(=O)cc(C)nc4s3)CC2)CC1	-5	0	i	1	2	-10	2	-5
Cc1ccc(S(=O)(=O)N2CCN(C(=O)COC(=O)/C=C/c3ccccc3[N+](=O)[O-])CC2)c(C)c1	-3	2	i	-4	0	-1	nt	nt
COc1cccc(/C=C2/SC(=S)N(CC(=O)NNC(=O)c3ccccc3OC)C2=O)c1	-10	12	i	2	10	8	5	-2
Cc1cc(=O)oc2c(C)c(OCC(=O)N3CCN(C(=O)C4COc5ccccc5O4)CC3)ccc12 (stereo not given)	-10	3	i	5	-3	-1	6	-11
COc1cccc(NC(=O)CN(c2ccc3c(c2)OCO3)S(C)(=O)=O)c1	nt	8	i	1	0	17	0	-12
CCOC(=O)Cc1cnc(NC(=O)Cn2nnc(-c3ccc(OCC)cc3)n2)s1	-31	nt	i	5	2	-4	-10	-6
C=C(C)CN(CC)C(=O)CCc1nnc(CCc2c[nH]c3ccccc23)o1	nt	23	i	2	3	-2	-8	-7
CC(C)(C)OC(=O)N1CCCC(C(=O)Nc2cccc(C(=O)NCCCCc3ccccc3)c2)C1 (stereo not given)	-12	-4	nt	-1	-10	nt	nt	nt
CCOc1ccc(C(=O)CN2CCN(S(=O)(=O)c3ccc(Br)cc3)CC2)cc1	-2	nt	i	-2	-3	-10	4	-9
CCc1ccccc1-n1nnnc1-c1cnccc1C(F)(F)F	-1	-23	i	-3	-5	-3	4	-14
O=S(=O)(c1cccc2ccccc12)n1nnc2ccccc21	nt	11	i	nt	nt	-5	5	-6
Clc1ccccc1/C=C/c1nc(-c2ccccn2)no1	-86	20	i	6	1	15	-10	-1
CCN(CC)CCCn1c2c(c(SCC(=O)Nc3cc(OC)cc(OC)c3)nc1=O)CCC2	-15	nt	i	7	3	-5	nt	nt
C[C@H](CO)N1C[C@H](C)[C@H](CN(C)C(=O)Nc2ccc3c(c2)OCO3)Oc2ncc(Br)cc2C1=O	0&3	-3	nt	3	5	nt	nt	nt
Cc1ccc(Cl)c(NC(=O)COC(=O)CNS(=O)(=O)/C=C/c2ccccc2)c1Cl	-8	-62	i	0	-1	5	3	-3
CCn1c(=O)cc(OCC(=O)NCCc2cccc(C)c2)c2ccccc21	26	21	i	10	3	0	-23	-3
O=C(N/C(=C\c1ccco1)C(=O)N1CCC(O)CC1)c1ccccc1	-2	-1	i	1	5	-3	4	2
Cc1cc(-c2ccccc2)nc(SCc2ccc(C(=O)O)cc2)n1	-10	2	i	-2	-1	-8	14	-1
CCc1cc2c(COC(=O)c3cccc(S(C)(=O)=O)c3)cc(=O)oc2cc1O	5	-5	i	-5	-13	-16	-2	-1
Cc1ccc(-n2c(N)c(C(=O)Nc3c(C)n(C)n(-c4ccccc4)c3=O)c3nc4ccccc4nc32)cc1C	nt	nt	i	nt	nt	4	7	?
Nc1cccnc1S(=O)(=O)c1cccc(C(F)(F)F)c1	nt	5	i	1	5	-7	nt	nt
COc1n[nH]c(C(=O)NCc2ccccc2)c1[N+](=O)[O-]	nt	-2	nt	-8	1	0	14	-10
CCOC(=O)c1sc(Nc2cccc(C)c2C)nc1C	nt	nt	i	nt	nt	1	-1	1
COC(=O)c1cccc(C(=O)N2CCCC(Nc3ccc(C)c(C)c3)C2)c1 (stereo not given)	12	8	i	-1	4	-11	nt	nt
Oc1cccc2cnccc12	-16	21	i	-11	-6	0	3	3
O=C(c1ccc(F)cc1)N1CCOC(c2nc(-c3ccc(F)cc3)no2)C1 (stereo not given)	-16	-15	nt	1	-8	1	nt	nt
CCOC(=O)N1CCN(c2c(NCCCN3CCCC(C)C3)c(=O)c2=O)CC1 (stereo not given)	4	18	i	4	0	17	3	5
O=Nc1c(O)cc(O)c2ccccc12	-27	1	nt	8	8	nt	nt	nt
CN1CCc2ccccc2C1Cc1ccccc1NC(=O)c1sc2ccccc2c1Cl (stereo not given)	-9	9	i	-14	-11	68	2	-1
COc1ccccc1CN1CC(C(=O)N(C)Cc2nc(C)cs2)CCC1=O (stereo not given)	-16	-13	i	-3	6	nt	-5	1
O=c1ccn(-c2cccc(C(F)(F)F)c2)nc1-c1ccn(-c2cccc(Cl)c2)n1	nt	nt	i	-3	-8	-17	-13	-2
COCC(=O)N(Cc1cc2ccc(C)cc2[nH]c1=O)c1ccccc1C	-17	5	i	-9	0	-1	-2	-12
CC(=O)c1c(C)[nH]c(=S)c(C#N)c1-c1ccc(Cl)cc1	-27	1	i	1	-4	5	-6	-7
CN(C1CCS(=O)(=O)C1)S(=O)(=O)c1ccc2ccccc2c1 (stereo not given)	-15	nt	i	-2	-6	-2	nt	nt
Cc1cccc(NC(=O)CN2CCSc3ccccc32)c1	-16	?	i	0	4	nt	2	-5

Just MT1-MMP act inh RFP (2 entries from above):
SMILES	MT1-MMP act inh RFP
CN(C1CCS(=O)(=O)C1)S(=O)(=O)c1ccc2ccccc2c1 (stereo not given)	-6
O=c1ccn(-c2cccc(C(F)(F)F)c2)nc1-c1ccn(-c2cccc(Cl)c2)n1	-8

Going on with the list.
canonical_smiles	Yeast UUG start	HIV Env fusion	Rce1 inhib	MT1-MMP act inh	MT1-MMP act inh RFP	CSC inhib	PABP FP inh	eIF4H FP inh
Cc1ccc2c(c1)[C@@H]1CN(C)CC[C@@H]1N2S(=O)(=O)c1ccc(F)cc1	2	nt	i	-9	-6	-12	5	1
O=C1CCC(C(=O)N(CCO)Cc2ccccc2)CN1CCCN1CCOCC1 (stereo not given)	-30	-11	i	-1	4	-13	-9	-4
COc1ccc(NC(=O)CCc2c(C)nc3nc(C)nn3c2C)cc1	-19	6	i	2	3	-7	-11	24
CN(C)S(=O)(=O)c1cccc(C(=O)Nc2ccc3c(c2)CCC3)c1	-40	-76	i	3	-2	nt	10	8
COC(=O)c1cc(Br)c(=O)n(-c2cccc(F)c2)c1	-13	-49	i	-1	0	-15	10	-1
O=S(=O)(NCCN1CCCC1)c1ccc(Cl)cc1	-3	-5	i	0	4	nt	-2	-6
COc1ccc(N2CC(NC(=O)N3CCc4ccccc43)CC2=O)cc1OC (stereo not given)	14	1	i	11	9	-26	-6	-7
Cc1ccc(N(CC(O)Cn2nc(C)cc2C)S(=O)(=O)c2ccc3ccccc3c2)cc1 (stereo not given)	nt	-28	i	-7	-9	0	10	-6
